Screening results from PubChem BioAssay.
Vif A3G: HIV-1 Vif–A3G interaction blockers – biochemical, TR-FRET, GST-Vif 1-94, biotin-A3G peptide, dose response retest, primary screen (AID 1117319); TR-FRET GST-Vif / biotin-A3G peptide binding; higher % means a stronger effect; test concentration not given here; strong numbers were not always called active; inhibition, %, or IC50 in µM where a hit was titrated; 260,000 tested, 0.57% active;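 active = above the screen mean plus three standard deviations and confirmed in dose response; inconclusive = results disagree or hit not tested in dose response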;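 also: Vif residues 1-94 fused to GST binding biotinylated APOBEC3G peptide 110-148; 0% = full assay without inhibitor and 100% = GST in place of GST-Vif; retest series ran down from 100 µM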
T cruzi inh: blocks replication of Trypanosoma cruzi | T. cruzi beta-gal in NIH3T3, luminescence, 90 h | inhibition, % (test concentration not listed) | 300,000 tested, 1.4% active;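 active = mean inhibition across valid replicates above about 55%, limit read from the data; inconclusive = mean below that limit but half or more replicates reach it; inactive = mean below it, under half of replicates reach it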;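 also: signal also drops with host cell toxicity which is not excluded here; 0% = plate median of DMSO wells and 100% = zero luminescence signal; higher percent means less beta-gal luminescence so fewer parasites; stock transfer was 50 nL into about 50 µL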
A1 inh: inhibitors of the anti-apoptotic protein A1, read as caspase activation. MEF A1-2A-BIM cells, Caspase-Glo 3/7 luminescence, 3 h; percent of clofoctol response, vehicle zero. caspase activation, % (concentration not given with the values). 330,000 tested, 0.066% active;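 active = over half of replicate activation scores above 10%, or exactly half above 10 with the replicate mean above 10; inconclusive = replicate mean below 10 yet half the replicates above 10; inactive = over half of replicates below 10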;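 also: wells of about 30 µL received 50 nL stock; many hits fall short of the cut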
Beta apoptosis: blocks beta cell apoptosis. INS-1E cytokine-induced death, ATP luminescence, 48 h; percent of positive-control rescue, neutral wells zero. protection from apoptosis, % (no concentration beside the values). 300,000 tested, 0.8% active;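 active = all replicates at 75% or more, or half of them and the mean; inconclusive = half reach 75% but not the mean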;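 also: 0% = cytokine-treated negative control wells and 100% = positive control rescue; higher means more ATP so stronger rescue from cytokine killing; wells of about 40 µL received 100 nL stock; the first replicate is given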
LANA-H2A inh: blocks KSHV LANA binding to histone H2A/H2B | inhibition, % (concentration not given with the values) | 320,000 tested, 0.6% active | Q9QR71 | cell-free LANA-H2A/H2B peptide, fluorescence polarization; in the data active = inhibition mostly above about 10%, no sharp cut-off; inactive = mostly below about 6.7%;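 also: stock transfer was 7.5 nL into about 10 µL; 0% = median of vehicle wells and 100% = median of positive control wells; one replicate is shown; the record names a cut of 25% in any replicate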
Calb FLC: C. albicans growth modulation with fluconazole; C. albicans CaCi-2 (fluconazole-resistant clinical isolate) + fluconazole, Alamar Blue growth, 48 h; growth inhibition, % (no concentration beside the values); AID 1979; 300,000 tested, 0.57% active;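 active = most replicates above 75%; inconclusive = exactly half above 75%; inactive = most below 75%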;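 also: all wells also contain fluconazole at 8 µg/ml as a sub-toxic cotreatment; 0% = median of DMSO wells and 100% = median of geldanamycin control wells; wells of about 8 µL received 7.5 nL stock; the first replicate is given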
AF4-AF9 inh: blocks AF4 peptide binding to human AF9 | P42568 | AlphaScreen, biotin-AF4 peptide binding to FLAG-AF9 | inhibition, % at 10 µM | 350,000 tested, 0.47% active;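 active = every replicate reaching a set inhibition limit, whatever the replicate mean, cut at about 25% in these data; inconclusive = mean inhibition reaches that limit but some replicates miss it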;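 also: 0% = plate neutral control median and 100% = total signal loss; the record names both 10 and 1 µM as test concentration; the first replicate is given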
Target sequence (P42568 whole entry, looked up): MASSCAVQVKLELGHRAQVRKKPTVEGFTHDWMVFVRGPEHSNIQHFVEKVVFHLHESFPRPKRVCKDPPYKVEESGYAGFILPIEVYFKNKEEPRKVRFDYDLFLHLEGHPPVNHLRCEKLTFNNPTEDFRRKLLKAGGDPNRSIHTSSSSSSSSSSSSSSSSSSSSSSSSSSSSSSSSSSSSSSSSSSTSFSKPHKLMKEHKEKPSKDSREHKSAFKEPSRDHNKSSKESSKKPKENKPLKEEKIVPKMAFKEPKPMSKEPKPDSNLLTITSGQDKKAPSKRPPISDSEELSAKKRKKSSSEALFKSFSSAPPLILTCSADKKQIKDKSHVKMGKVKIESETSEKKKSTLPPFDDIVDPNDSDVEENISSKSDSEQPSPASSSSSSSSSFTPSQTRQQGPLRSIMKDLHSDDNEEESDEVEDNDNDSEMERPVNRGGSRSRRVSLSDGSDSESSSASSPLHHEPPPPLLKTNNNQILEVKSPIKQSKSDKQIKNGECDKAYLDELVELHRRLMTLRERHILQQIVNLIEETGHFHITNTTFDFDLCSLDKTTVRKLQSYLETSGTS
RanGTP-Impb inh: disruptors of Ran-importin-beta complex formation – biochemical, FRET, CFP-Ran, YFP-importin-beta, homogeneous, primary screen; 300,000 tested, 1.1% active; cell-free CFP-Ran/YFP-importin-beta FRET ratio; inhibition, % (test concentration not listed);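 active = most replicates above 15%; inconclusive = exactly half above 15%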;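 also: 0% = DMSO wells and 100% = Ran loaded with GDP instead of GTP; wells of about 40 µL received 100 nL stock; the first replicate is given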
Starred values were filed as active, the others as inactive; ? = inconclusive; · = not tested or not shown.

SMILES	Vif A3G	T cruzi inh	A1 inh	Beta apoptosis	LANA-H2A inh	Calb FLC	AF4-AF9 inh	RanGTP-Impb inh
O=C(COc1ccc2ccccc2c1)Nc1cccc2c1C(=O)NC2=O	-3%	-10	-0.2	-5	-4.4	2	·	0.6
CCN1CCN(c2ncnc3c2c(-c2ccccc2)cn3-c2ccc(F)cc2)CC1	1%	20	0.0	2	2.1	-4	13	-5.3
Cc1cc(-c2ccc(Cl)cc2)c(C#N)c(N)n1	-1%	-5	-0.4	-4	-6.3	-15	8.1	13
Nc1ccc(NC(=O)c2cccs2)cc1	8%	-6	-1.2	-6	-3.0	-8	-0.6	0.7
CC(=O)c1c(C)[nH]c(C(=O)COC(=O)COc2ccccc2F)c1C	1%	·	0.3	4	4.7	·	-1.7	·
C=CCn1c(SCC(=O)c2c(N)n(C)c(=O)n(C)c2=O)nc2sc(CC)cc2c1=O	5%	7	1.9	·	-1.5	11	·	-1.0
Cc1c(C)n(CC(O)CN2CCCCCC2)c2ccccc12 (stereo not given)	80%	20	-0.1	0	0.8	-2	·	4.1
O=C(NN1C(=O)C2C3c4ccccc4C(c4ccccc43)C2C1=O)C1CC1 (stereo not given)	7%	-7	-0.1	1	0.0	-9	-4.3	0.8
N/C(=N\OC(=O)CSc1ccccc1)c1cccc([N+](=O)[O-])c1	2%	-4	-0.8	-4	2.4	-18	1.8	-5.3
O=C(/C=C/c1ccc([N+](=O)[O-])o1)NNC(=O)c1ccc(F)cc1	·	15	1.4	94*	-0.8	?	-1.8	-0.9
CC1(c2ccccc2)CC(C)(C)n2c(O)c(C3=NC(=S)NC3=O)c3cccc1c32 (stereo not given)	-1%	41	0.4	4	-9.6	-2	0.7	?
CSCC[C@H](NC(=O)N1CCn2c1nc1ccccc12)C(=O)N[C@@H](C(=O)O)c1ccccc1	·	6	1.4	-2	1.0	-6	-0.2	2.9
Cc1cc(C)c(C(=O)Nc2ccc(S(=O)(=O)Nc3ccccn3)cc2)c(C)c1	·	6	0.6	9	4.3	-9	-1.5	3.8
Cc1c(NC(=O)Nc2ccc(Cl)cc2)c(=O)n(-c2ccccc2)n1C	-5%	10	1.0	·	-4.9	11	·	5.3
Cc1cc(C(=O)NCc2ccco2)sc1C	-2%	·	-1.7	-8	0.7	·	-1.7	·
COc1ccc(C2(CNC(=O)c3ccc(OCC(C)C)cc3)CCOCC2)cc1	5%	9	-0.7	4	-5.5	0	·	0.0
COc1ccc(C2=Nn3c(nnc3-c3ccccc3F)SC2)cc1OC1CCCC1	·	·	-2.2	9	0.8	·	11	·
Cc1ccc2sc(N(CCN(C)C)C(=O)/C=C/c3cccs3)nc2c1C	·	23	0.8	9	2.1	-10	6.1	?
CC1CCc2c(sc3nc(CN4CCOCC4)nc(Sc4ccccc4)c23)C1 (stereo not given)	7%	22	0.3	-10	-0.3	0	·	-6.3
Cc1cc(C)nc(SCC(=O)Nc2nonc2N)n1	5%	-7	0.6	-5	0.4	2	-0.5	3.8
CC(C)CC1(C)NC(=O)N(CC(=O)N2C(C)CCCC2C)C1=O (stereo not given)	·	·	0.5	-2	-0.3	·	0.4	·
COc1ccc(Nc2ncc(C(=O)O)c3ccccc23)cc1	3%	-17	0.4	-2	-0.6	18	·	1.7
O=C(CCCCCCN1C(=O)c2ccccc2C1=O)N1CCC(c2ccccc2)C1 (stereo not given)	-3%	9	-1.8	4	-2.1	-9	·	2.8
Cc1cc(NC(=O)c2ccccc2C)ccc1NC(=O)c1ccccc1Cl	·	-6	-1.0	·	-0.1	4	-3.0	0.8
CCCCc1cc(=O)oc2cc(OC3CCCCC3=O)ccc12 (stereo not given)	-10%	10	-0.1	7	-0.5	-4	-3.7	?
O=C(/C=C/c1ccc(Br)cc1)c1ccco1	·	-1	-1.5	3	2.0	2	-3.1	1.4
CN(C)c1ccc(C(CNC(=O)c2ccc(F)cc2)c2c[nH]c3ccccc23)cc1 (stereo not given)	-1%	34	0.3	7	-2.8	-1	16	7.2
Cc1ccc2[nH]c(=O)c(-c3nc4ccccn4c3NCc3ccco3)cc2c1	7%	-14	-1.6	·	-1.0	-50	·	-3.3
C=CCN1C(=O)C(Cc2ccccc2)SC1=Nc1ccc(C(=O)O)cc1 (stereo not given)	·	16	-0.4	4	2.3	-1	·	-0.5
CCOc1ccc(NC(=O)CC2C(=O)N(c3ccc(OC)cc3)C(=O)N2CCc2cccs2)cc1 (stereo not given)	-1%	2	0.6	-3	7.1	-3	-0.7	?
Cc1ccc(N(C(=O)CCC(=O)Nc2cc(C)on2)C(C(=O)NC2CCCC2)c2cccs2)cc1 (stereo not given)	16%	-8	-0.2	-3	-1.8	6	·	4.6
Cc1nn(C(C)C(=O)NCCN2CCCCCC2)c(=O)c2nn(-c3ccccc3)c(C)c12 (stereo not given)	·	-3	-0.3	-5	-1.3	-4	-14	6.1
CCCN1C(=O)SC(CC(=O)Nc2cccc3ccccc23)C1=O (stereo not given)	14%	·	1.4	0	2.5	12	·	·
O=C(CCC(=O)N1CCCC1)Nc1ccc(Cl)c(Cl)c1	·	-3	0.2	-5	3.5	1	-1.0	8.8
Cc1ccc([N+](=O)[O-])cc1N/C=C/C(=O)c1ccco1	6%	-11	0.1	3	0.6	-15	-1.2	-3.9
CCn1c(SCC(=O)N(C)CC(=O)Nc2ccc(F)c(F)c2F)nnc1-c1ccco1	·	-15	-0.3	·	8.5	6	-0.9	-0.9
COc1ccc(Cn2c(=S)[nH]c3cc(OC)c(OC)cc3c2=O)cc1	-4%	8	1.3	41	-3.3	0	0.2	2.0
COc1ccc(CCC(=O)OCC(=O)Nc2ccccc2)cc1	·	-3	-1.3	-5	-4.8	5	-0.8	3.5
COc1cc2c(cc1OC)C(C)N(S(=O)(=O)c1cn(C)c(C)n1)CC2 (stereo not given)	·	4	1.7	0	-3.0	6	0.3	5.6
Cn1c(=O)[nH]c(=O)c2c1nc(N1CCCCC1)n2CCSc1ncccn1	·	-9	0.4	-5	-3.4	2	-16	0.0
Cc1ccc(SCc2[nH]nc3c2C(c2ccco2)C(C#N)=C(N)O3)cc1 (stereo not given)	?	-14	-0.4	-3	1.1	-29	·	?
COC(=O)C1=C(C)N(C)C(C)=C(C(=O)OC)C1c1ccccn1	-1%	2	0.5	0	-1.8	-5	·	-1.7
COCCNC(=O)C(c1ccc(O)cc1)N(Cc1ccccc1)C(=O)CCC(=O)Nc1ccccn1 (stereo not given)	·	-14	0.8	-3	-6.6	-18	-9.7	3.8
Cc1ccc(C)c(NC(=O)Cn2nc(C(F)(F)F)cc2C2CC2)c1	5%	-2	-0.6	1	-2.1	9	·	8.3
Cc1ncc2c(c1OC(=O)c1ccc([N+](=O)[O-])cc1)COC(C)(C)OC2	19%	4	0.2	-3	3.2	2	·	-3.5
CCOc1ccc(-c2n[nH]c(C)c2Oc2ccc(OC)cc2)c(O)c1	4%	8	1.7	-9	-4.8	-10	·	4.7
O=Cc1ccc(OCc2ccc3ccccc3c2)cc1	·	-16	-0.2	-8	0.8	20	-3.4	4.3
CC(C)=CCN1CCN(C/C(Cl)=C/c2ccccc2)CC1CCO (stereo not given)	·	30	-0.5	-7	-3.6	2	1.1	5.8
CC(C)Cc1nnc(NC(=O)CN2C(=O)NC3(CC(C)CC(C)(C)C3)C2=O)s1 (stereo not given)	3%	-5	-0.5	1	-4.0	4	-0.8	-1.3
NS(=O)(=O)c1ccc(CNC(=S)Nc2ccc(Cl)c(Cl)c2)cc1	·	-23	0.3	-5	-0.6	3	2.8	0.5
CCOC(=O)c1c(N)sc2c(OC)c(Br)ccc12	-9%	21	-0.8	-4	1.6	9	·	3.7
O=C(Nc1ccc(Nc2ccncc2)cc1)c1ccc([N+](=O)[O-])cc1	3%	33	?	22	-1.0	-2	-13	2.3
O=C1NC(=O)/C(=C\c2ccccc2OCc2cccc([N+](=O)[O-])c2)N1	2%	16	1.9	3	0.6	-22	-1.9	0.3
CC(C)n1cc(-c2ccc(Cl)cc2)cc(C#N)c1=O	-2%	10	0.0	7	2.7	-6	·	-1.5
COc1cccc(/C=N/Nc2ncc(C(F)(F)F)cc2Cl)c1O	2%	-13	2.0	131*	5.1	4	·	2.7
O=C(O)c1cccc2c1C(=O)N(CC1CCCO1)C2 (stereo not given)	·	-5	-0.2	-9	0.3	-12	0.1	0.4
CCOc1ccc(N2CC(C(=O)NNC(=O)c3ccc(Br)cc3)CC2=O)cc1 (stereo not given)	·	4	3.3	·	-5.5	-2	-0.4	3.2
O=C(c1cc([N+](=O)[O-])[nH]n1)N1CCSCC1	27%	-7	0.0	0	3.8	10	0.3	0.4
CC(=O)NC1=NN(C(C)=O)C(c2ccco2)S1 (stereo not given)	?	-5	1.0	1	0.3	-6	1.6	0.4
CCOC(=O)/C(C#N)=C\c1ccc(OC)c(OC)c1	-2%	-2	-0.7	-6	0.0	0	5.7	?

Other records
SMILES	Vif A3G	T cruzi inh	A1 inh	Beta apoptosis	LANA-H2A inh	Calb FLC	AF4-AF9 inh	RanGTP-Impb inh
CC(=O)NC(CC(=O)NCCOc1ccccc1F)c1ccccc1 (stereo not given)	·	-5	2.1	·	-8.8	-3	1.5	-3.8
CCOC(=O)c1ccc(N2C(=O)c3n[nH]c(-c4ccco4)c3C2c2ccc([N+](=O)[O-])cc2)cc1 (stereo not given)	·	36	0.9	19	1.2	5	·	6.6
Cc1coc2cc3oc(=O)c(CCC(=O)N[C@@H](CCCNC(N)=O)C(=O)O)c(C)c3cc12	-3%	4	-0.2	-11	6.1	10	2.4	1.1
NS(=O)(=O)c1ccc(CNC(=O)c2ccncc2)cc1	5%	-12	-0.3	3	-3.4	-3	-1.5	0.9
CC(C(c1ccc2c(c1)OCO2)c1c(N)n(C)c(=O)n(C)c1=O)[N+](=O)[O-] (stereo not given)	·	-7	-0.2	-2	2.0	-3	-1.7	-2.0
CN(C)S(=O)(=O)c1cccc(NC(=O)c2ccc(NS(=O)(=O)c3cccs3)cc2)c1	·	·	1.3	-3	-2.0	·	-0.2	·
CCC(CC)c1nnc(NC(=O)C2CC(=O)N(CCc3ccc(F)cc3)C2)s1 (stereo not given)	·	-1	0.5	1	6.7	-6	-2.4	-4.3
Cc1nn(C)c(C)c1S(=O)(=O)N(CC(=O)NCCCOC(C)C)c1ccc(C(C)C)cc1	18%	14	-0.1	5	-4.4	31	·	1.9
Cc1cccn2c(CN(C)C3CCCc4ccccc43)c(C(=O)N3CCOCC3)nc12 (stereo not given)	·	16	0.7	-2	3.3	9	2.1	?
Cc1ccc(C)c(N2CCN(CCCNC(=O)Cn3cccc3C(=O)c3ccccc3C)CC2)c1	·	27	0.6	10	-1.9	2	21	-0.8
COc1ccccc1-c1ccc(=O)n(CC(=O)NC(C)(C)C)n1	?	-9	1.2	-10	-0.4	-6	0.3	·

Full records, quoted from the list:
CC(C)CC1(C)NC(=O)N(CC(=O)N2C(C)CCCC2C)C1=O (stereo not given) as listed: Vif A3G: ·; T cruzi inh: ·; A1 inh: 0.5; Beta apoptosis: -2; LANA-H2A inh: -0.3; Calb FLC: ·; AF4-AF9 inh: 0.4; RanGTP-Impb inh: ·
Cc1cc(C)nc(SCC(=O)Nc2nonc2N)n1 as listed: Vif A3G: 5%; T cruzi inh: -7; A1 inh: 0.6; Beta apoptosis: -5; LANA-H2A inh: 0.4; Calb FLC: 2; AF4-AF9 inh: -0.5; RanGTP-Impb inh: 3.8
